Screening data (PubChem BioAssay)
Mtb growth: Confirmatory growth inhibition assay against Mycobacterium tuberculosis H37Rv, potency (AID 1949) | one-dose inhibition, % at 10 µg/mL; IC50 in µg/mL for titrated hits | hit rate 1.6% among 100,000 | most inactive calls were filed without a number and no value below 0 was filed;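 active = confirmed in a dose series; inconclusive = about 50% or more but not retested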;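 also: bacteria grown 7 days with compound before Alamar blue readout; 0% = untreated bacteria and 100% = reference antibiotic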
* hit, by the source's call; i = inactive; u = inconclusive. Only part of the results is shown; the hit share may differ from the screen's.

SMILES	Mtb growth
O=c1oc2cc(Oc3ccc([N+](=O)[O-])cc3C(F)(F)F)ccc2c2ccccc12	i
O=C(Cc1ccccc1)Oc1ccc(C(=S)N2CCCCC2)cc1	i
O=C(O)CC(Cc1ccccc1)C(=O)Nc1cccc(C(F)(F)F)c1 (stereo not drawn)	i
CCn1c(CC(=O)Nc2ccccc2F)nnc1SCC(=O)N1CCN(c2ccccc2)CC1	i
COc1ccc(S(=O)(=O)Nc2ccccc2OC)cc1Br	i
COc1ccc(C(C)=O)c(OC(=O)c2ccc(OC)c(OC)c2)c1	i
Cc1ccc(C(=O)Nc2ccccc2C(=O)NCCCn2ccnc2)cc1	17%
CCOC(=O)c1ccc(NC(=O)Nc2ccc3c(c2)OCCO3)cc1	u
CCOC(=O)c1c(NC(=O)c2cc3cccc(OC)c3oc2=O)sc2c1CCCC2	i
CCOc1cc(C(=O)Nc2nnc(C(C)C)s2)cc(OCC)c1OCC	i
Cc1ccc(CN(c2ccc(C(=O)N3CCCCC3)cc2)S(C)(=O)=O)cc1	i
CCN(C(=O)C12CCC(C)(C(=O)O1)C2(C)C)c1ccccc1 (stereo not drawn)	i
CCOC(=O)c1c(NC(=O)C(C)c2ccccc2)sc(C(=O)N(C)C)c1C (stereo not drawn)	3%
O=C(c1ccsc1)N1CCN(C(=O)c2cccs2)CC1	7%
COC(=O)c1ccc(C(=O)OC)c(NC(=O)C(C)N(c2ccc(OC)cc2)S(C)(=O)=O)c1 (stereo not drawn)	i
O=C(CN1CCOCC1)c1ccc2c(c1)OCCO2	i
CCc1ccccc1OCC(=O)Oc1ccc(C)cc1	1%
CCOC(=O)C1=C(C)NC(SC)=NC1c1ccc(OC)cc1OC (stereo not drawn)	i
CCOC(=O)c1c(NC(=O)COc2ccc(C(C)C)cc2)sc2c1CCC2	2.8µg/mL*
CCOc1ccccc1NS(=O)(=O)c1ccc(OC)c(Br)c1	i
CC(=O)c1ccc(NC(=O)C(Cl)(Cl)Cl)cc1	i
CCOc1ccccc1C(=O)Nc1ccc(Br)cc1F	i
Cc1ccc(N2CC(C(=O)N3CCc4ccccc43)CC2=O)cc1 (stereo not drawn)	i
O=C(COc1ccc(Cl)cc1Br)NCCC1=CCCCC1	21%
N#C/C(=C\c1ccco1)Sc1nc2ccccc2s1	i
COC(=O)c1ccccc1NC(=O)N1CCN(C(=O)c2ccco2)CC1	4%
O=C(Nc1cccc(N2CCCC2)c1)c1cccc(Cl)c1	5%
CCOc1ccc(-c2nc(C#N)c(N3CC(C)OC(C)C3)o2)cc1 (stereo not drawn)	i
C/C(=N\N=C1\NC(=O)C(CC(=O)Nc2cccc(Cl)c2Cl)S1)C(C)(C)C (stereo not drawn)	i
COc1ccc(S(=O)(=O)N(CC(=O)N2CCc3ccccc3C2)c2ccccc2OC)cc1	i
CCOC(=O)N1CCN(C(=O)C2CCCCC2)CC1	i
Cc1cc(C)cc(C(=O)NC(=S)Nc2nc(-c3ccc(Cl)cc3)cs2)c1	i
COc1ccc(NC(=O)CSc2nnc3scc(-c4ccc(Cl)cc4)n23)cc1	i
NC(=O)c1ccc(NC(=O)NC2CCCCC2)cc1	i
O=C(Nc1cccnc1)C1CC(c2c(F)cccc2Cl)=NO1 (stereo not drawn)	i
Cc1cc(Br)ccc1NC(=O)CSc1nnc(-c2ccccc2)o1	i
Cc1nnc(NC(=O)c2cccc(S(=O)(=O)N3CCCCC3)c2)s1	i
Cc1cccc(OCC(=O)Nc2cccc(-c3nnc(-c4ccco4)o3)c2)c1C	4%
COc1ccc(NC(=O)c2c(C)cc(C)cc2C)cc1Cl	i
COc1ccc(Br)cc1/C=C/c1nc2ccccc2c(=O)n1-c1ccc([N+](=O)[O-])cc1	i
CNCCCOc1ccc(Cl)c(C)c1	i
Cc1cc(C)c(OCCN(C)C)c(C)c1	i
CC(=O)Nc1ccc(C(=O)NC2CCCCCC2)cc1	i
CCc1ccccc1NC(=O)c1ccc(OCC(=O)Nc2cc(Cl)cc(Cl)c2)cc1	i
CS(=O)(=O)N(CC(=O)Nc1ccc(Br)cc1F)C1CCCCC1	i
COc1cccc(COc2ccc3c(C)c(C)c(=O)oc3c2C)c1	i
COc1nnc(-c2ccc(N3CCCCC3)c(N)c2)c2ccccc12	19%
CCCCN(Cc1cc2ccccc2o1)S(=O)(=O)c1ccc(OCC)cc1	i
O=C(Nc1ccc2c(c1)OCO2)NC1(C(F)(F)F)Oc2ccccc2O1	i
CCc1nnc(NC(=O)c2sc3cc(C)ccc3c2Cl)s1	i
O=C(c1ccco1)N1CCN(CCN2C(=O)c3cccc4cccc(c34)C2=O)CC1	3%
Cc1cc(OCC(=O)N2CCCC(C)C2)cc2oc(=O)c3ccccc3c12 (stereo not drawn)	i
Cc1cccc(C)c1NC(=O)CSc1nc2ccccc2c(=O)[nH]1	6%
COc1ccc(NC(=O)c2ccco2)cc1NC(=O)c1cc(Cl)c(OC)c(Cl)c1	i
CCn1c(NCc2ccc(OC)cc2O)nc2ccccc21	44%
Cc1cccc(NC(=O)C2C(c3ccccc3)=C2c2ccccc2)c1C	1%
CC1CN(CCCCOc2ccc(F)cc2)CC(C)O1 (stereo not drawn)	i
Cc1cc(C)cc(OC(C)C(=O)Nc2ccccc2F)c1 (stereo not drawn)	3%
CCOC(=O)c1sc(NC(=O)c2sc3ccccc3c2Cl)c(C(=O)OCC)c1C	4%
CC(C)=C1C2CCC1C1C(=O)N(c3sc4c(c3C(N)=O)CCCCC4)C(=O)C21 (stereo not drawn)	i

Filtered by structure, the entries above with a CF3 group (three)
SMILES	Mtb growth
O=c1oc2cc(Oc3ccc([N+](=O)[O-])cc3C(F)(F)F)ccc2c2ccccc12	i
O=C(O)CC(Cc1ccccc1)C(=O)Nc1cccc(C(F)(F)F)c1 (stereo not drawn)	i
O=C(Nc1ccc2c(c1)OCO2)NC1(C(F)(F)F)Oc2ccccc2O1	i

(further entries)
SMILES	Mtb growth
CC(C)NC(=O)CC12CC3CC(C1)CC(CC(=O)NC(C)C)(C3)C2	i
COc1ccc(-n2c(/C=C/c3ccc(C)cc3)nc3ccccc3c2=O)cc1	5%
O=C(NCc1ccccc1)c1ccc(S(=O)(=O)c2ccccc2)cc1	i
COc1ccc(C(=O)NC(=S)NCCO)cc1Br	i
COc1ccc(CCNC(=S)Nc2cnn(Cc3ccc(Br)cc3)c2)cc1OC	i
O=C(Nc1ccccc1C(=O)N1CCCC1)c1ccc(CSc2ccccc2)cc1	i
COc1ccc(-c2nc3c(cnn3-c3ccccc3)c(=O)[nH]2)cc1	i
COc1cc2oc(=O)c(Br)c(C)c2c(OC)c1OC	5%
COc1ccccc1N1CC(O)=C(c2nc3ccccc3s2)C1=N	2%
O=C1NC(=O)C(CCc2ccncc2)(Cc2ccccc2)C(=O)N1c1ccc(Br)cc1 (stereo not drawn)	i
O=C(CN1CCN(C(=S)Nc2ccccc2)CC1)Nc1ccc(F)cc1	i
COCCn1c(C)cc(/C=C(\C#N)c2ccc(C)cc2)c1C	i
CS(=O)(=O)N(CC(=O)Nc1cc(Cl)cc(Cl)c1)c1ccc(I)cc1	i
Cc1cc(C)nc(SCc2ccc3nonc3c2)n1	1%
O=C1CSC(c2ccc3c(c2)OCO3)c2c(n(C3CCCC3)[nH]c2=O)N1 (stereo not drawn)	1%
COc1cc2[nH]c(=S)n(Cc3cccnc3)c(=O)c2cc1OC	i
COc1ccccc1-c1coc2cc(OC(=O)c3ccccc3Cl)ccc2c1=O	i
O=CN1CCN(c2c([N+](=O)[O-])c(=O)oc3ccccc23)CC1	i
Cc1ccc(-n2c(=S)[nH]c3ccc(Br)cc3c2=O)cc1	i
O=C(Nc1nncs1)c1c(F)cccc1F	1%

Eight compounds already listed, ordered by SMILES length, low to high.
SMILES	Mtb growth
Cc1cc(C)nc(SCc2ccc3nonc3c2)n1	1%
COc1cc2oc(=O)c(Br)c(C)c2c(OC)c1OC	5%
COc1cc2[nH]c(=S)n(Cc3cccnc3)c(=O)c2cc1OC	i
O=C(NCc1ccccc1)c1ccc(S(=O)(=O)c2ccccc2)cc1	i
COc1ccc(-c2nc3c(cnn3-c3ccccc3)c(=O)[nH]2)cc1	i
COc1ccc(CCNC(=S)Nc2cnn(Cc3ccc(Br)cc3)c2)cc1OC	i
COc1ccc(-n2c(/C=C/c3ccc(C)cc3)nc3ccccc3c2=O)cc1	5%
O=C1CSC(c2ccc3c(c2)OCO3)c2c(n(C3CCCC3)[nH]c2=O)N1 (stereo not drawn)	1%

Structures above containing a nitro group on carbon, in the order listed:
SMILES	Mtb growth
O=c1oc2cc(Oc3ccc([N+](=O)[O-])cc3C(F)(F)F)ccc2c2ccccc12	i
COc1ccc(Br)cc1/C=C/c1nc2ccccc2c(=O)n1-c1ccc([N+](=O)[O-])cc1	i
O=CN1CCN(c2c([N+](=O)[O-])c(=O)oc3ccccc23)CC1	i

Following part
SMILES	Mtb growth
CCOc1cc(C2C3=C(CCCC3=O)NC3=C2C(=O)CCC3)ccc1OCc1ccc(C)cc1	i
CCn1c(SCC(=O)Nc2nc(-c3ccccc3)c(C)s2)nnc1-c1ccc(Cl)cc1	i
Cn1c(SCC(=O)NCc2cccs2)nnc1-c1ccco1	i
Cn1ccc(C(=O)N/N=C(\C=C\c2ccccc2)c2ccccc2)n1	6%
Cc1cnn(CCCNC(=S)Nc2cccc(C(F)(F)F)c2)c1	i
Cc1cc(C)nc(NC(=O)Nc2ccc(Cl)cc2)n1	4%
N#CC1=C(N)Oc2n[nH]c(-c3ccc(F)cc3)c2C1c1ccc(F)c(Br)c1 (stereo not drawn)	i
O=C(c1ccc(F)cc1F)N1CCN(c2ncccn2)CC1	i
CNCCCOc1cccc(C(C)C)c1	i
CCN1CCN(CC(O)COCCC23CC4CC(CC(C4)C2)C3)CC1 (stereo not drawn)	i
O=C(Nc1ccccc1N1CCOCC1)c1ccco1	i
O=C(c1ccco1)N1CCN(C(=O)C2c3ccccc3Oc3ccccc32)CC1	i
CCN1C(=O)NC(c2cccnc2)C(C(=O)OC)=C1C (stereo not drawn)	2%
COc1ccc([N+](=O)[O-])cc1NC(=O)c1cccc(Br)c1	i
O=[N+]([O-])c1cccc(NC(=S)N2CCOCC2)c1	i
COc1ccc(C(=O)N2CCC(C(=O)Nc3cc(OC)ccc3OC)CC2)cc1	i
CCCCn1c(=O)c(C(=O)Nc2ccc(F)c(F)c2)c(O)c2ccccc21	i
O=C(O)C1C2C=CC(C3CC23)C1C(=O)N1CCc2ccccc21 (stereo not drawn)	i
COc1cccc(Nc2nc(-c3sc(N)nc3C)cs2)c1	2%
CSc1ccc(C(=S)N2CCN(c3ccc(F)cc3)CC2)cc1	i
O=Cc1ccc(OC2OCCOC2Oc2ccc(C=O)cc2)cc1 (stereo not drawn)	1%
N#Cc1c(NC(=O)c2cc3ccccc3o2)sc2c1CCC2	i
O=C1CC(c2cccc(F)c2)Sc2nc(C34CC5CC(CC(C5)C3)C4)nn21 (stereo not drawn)	i
C=CCn1c(Cc2ccccc2)nnc1SCC(=O)NCc1ccccc1	i
O=C(NCc1ccccn1)C(=O)N1CCCCC1	i
CC(NC(=O)C12CC3CC(CC(C3)C1)C2)C(=O)NCc1ccccc1 (stereo not drawn)	i
Cc1cc(Cl)c(S(=O)(=O)Nc2ccc(S(=O)(=O)N3CCOCC3)cc2)cc1OCC(N)=O	i
O=C(CC1CCCCC1)Nc1cccc(Br)c1	2%
CCC(=O)Oc1ccc(C(=O)Nc2ccccc2C(F)(F)F)cc1	8%
O=C(Nc1ccccc1F)C1CCN(S(=O)(=O)c2ccc(Cl)cc2)CC1	0%
CCc1ccc(-c2cc(C(=O)NCCOC)c3cc(Br)ccc3n2)cc1	i
Cc1nnc(SCCCc2ccccc2)n1-c1ccc(F)cc1	1%
COc1ccc(C)cc1NC(=O)C1C2C=CC(C2)C1C(=O)O (stereo not drawn)	i
CSc1nnc(-c2cc(Cl)ccc2NC(C)=O)c(=O)[nH]1	i
CC(C)c1ccc2oc(-c3ccc(NC(=S)NC(=O)c4ccc(F)cc4)cc3)nc2c1	i
COc1ccc(Cl)cc1NC(=O)CC(C(=O)O)N1CCNCC1 (stereo not drawn)	i
Cc1ccc(C(=O)Nc2ccc(S(N)(=O)=O)cc2)cc1Br	i
CCS(=O)(=O)N1CCN(c2ccc([N+](=O)[O-])c(N3CCCCC3)c2)CC1	2%
CC(=O)c1cccc(NS(=O)(=O)c2ccc(Cl)s2)c1	i
COCCNC(=S)Nc1ccc(OC)cc1OC	i
O=C(Cc1ccc(Cl)cc1)Nc1cccc2cccnc12	7%
CCSc1ccccc1C(=O)NC(C)c1ccccc1 (stereo not drawn)	i
COc1cc(NC(=S)NC(=O)c2cc(C)cc(C)c2)ccc1NC(=O)C(C)C	i
COc1cc(NC(=O)c2ccc(C#N)cc2F)ccc1NC(=O)c1ccccc1Cl	i
Cc1ccc(C(C)C)c(OCC(=O)O)c1	i
Nc1nc(CSc2nnc(-c3ccccc3)n2Cc2ccccc2)nc(Nc2ccccc2)n1	1%
Cc1cc(C)cc(OCC(=O)Nc2ccc(Br)cc2C)c1	i
O=[N+]([O-])c1cc(-c2nc3ccccc3s2)ccc1O	i
COC(=O)c1ccccc1-n1c(C)cc(C=O)c1C	i
CCOC(=O)C1CCCN(S(=O)(=O)c2cc(Br)ccc2OCC)C1 (stereo not drawn)	i
COc1ccc([N+](=O)[O-])cc1COc1cc2oc(=O)c3c(c2cc1Cl)CCCC3	i
O=C(c1cccs1)N1CCN(c2ncccn2)CC1	i
Cc1cc2nc(Nc3nc(C)c(CCC(C)C)c(=O)[nH]3)nc(C)c2cc1C	i
Cc1cc(F)ccc1NC(=O)c1ccncc1	i
O=C1CCCC2=C1C(c1cc(Br)ccc1OCc1ccccc1F)C1=C(CCCC1=O)N2	i
CCCOc1cccc(C2c3c(oc4cc(C)c(C)cc4c3=O)C(=O)N2Cc2ccccc2)c1 (stereo not drawn)	i
COc1ccc(S(=O)(=O)N(CCC#N)CCC#N)cc1	i
